High-throughput results from PubChem.
NPYLR7 ag: agonists of mosquito NPYLR7 receptor, primary screen, cell-based, Aedes aegypti, calcium fluorescence, mosquito biting behavior. Aedes aegypti neuropeptide Y-like receptor 7 (NPYLR7). HEK293T NPYLR7/Galpha15, GCaMP6s calcium fluorescence. activation, % at 10 µM. hit rate 0.15% among 270,000. AID 1259423, 2018; in the data active = activation above about 40%;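 also: 0% = vehicle and 100% = reference agonist at the receptor; some compounds past the cut are filed as inactive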
NPYLR7 ag max-min: also measured in NPYLR7 ag; calls as there; activation, %; measured here: Max-Min RFU normalised activation; some inactives read as strong as hits;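 span of the calcium signal over five minutes; 0% = vehicle and 100% = native peptide agonist; compound fluorescence can raise it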
Active calls of the source: *; & = joins results of further samples. These rows are one share of the data; count on the stated rates, not on these rows.

No.	Molecule	NPYLR7 ag	NPYLR7 ag max-min
1	NC(=O)c1cnc2n1CCN(C(=O)CN1CCC(c3ccccc3)C1)C2 (centres undefined)	11.1	8.2
2	CC1CC(C)CN(C(=O)c2ccccc2NC(=O)CNC(=O)Cc2ccccc2)C1 (centres undefined)	-2.7	-2.3
3	COC(=O)C1CCCCN1Cc1nc(N2CCCN(C(C)=O)CC2)c2cccc(C)c2n1 (centres undefined)	15.2	6.4
4	NC(=O)C1(NS(=O)(=O)c2cc(Cl)cc(Cl)c2)CC1	1.7	-5.9
5	COc1cccc(/C=C2/SC(N)=NC2=O)c1	-13.9	-13.4
6	COCc1[nH]n2c(=O)c(Cl)c(C)nc2c1-c1ccc(OC)cc1	-17.2	-23.8
7	CCc1nc2c(OCc3ccc4c(c3)OCO4)cccn2c1N(C)C(C)=O	11.1	-1.0
8	O=C(O)c1cc(S(=O)(=O)Nc2cccc(OC(F)F)c2)cc(F)c1F	11.6	9.1
9	O=c1[nH]c(-c2ccc(CN3CCCC3c3nccs3)cc2)nc2c1CNCC2 (centres undefined)	-19.1	-17.6
10	Cc1ccccc1-n1ncc(C(C)NC(=O)Cc2ccc3c(c2)OCO3)c1C (centres undefined)	13.7	1.8

Arranged by heavy-atom count (low to high): part of the list above.
No.	Molecule	NPYLR7 ag	NPYLR7 ag max-min
4	NC(=O)C1(NS(=O)(=O)c2cc(Cl)cc(Cl)c2)CC1	1.7	-5.9
8	O=C(O)c1cc(S(=O)(=O)Nc2cccc(OC(F)F)c2)cc(F)c1F	11.6	9.1
1	NC(=O)c1cnc2n1CCN(C(=O)CN1CCC(c3ccccc3)C1)C2 (centres undefined)	11.1	8.2
7	CCc1nc2c(OCc3ccc4c(c3)OCO4)cccn2c1N(C)C(C)=O	11.1	-1.0
10	Cc1ccccc1-n1ncc(C(C)NC(=O)Cc2ccc3c(c2)OCO3)c1C (centres undefined)	13.7	1.8

Additional results.
No.	Molecule	NPYLR7 ag	NPYLR7 ag max-min
11	COc1ccc(Nc2cccc(-c3cccc(N(C)C)c3)n2)cc1	-7.0	-9.9
12	COC(=O)c1sccc1S(=O)(=O)Nc1ccccc1F	-6.2	21.1
13	COc1cccc(NC(=O)CSc2nc(=O)n3cccc(C)c3n2)c1	2.3	-0.1
14	CCC(C)NC(=O)C(NC(=O)c1ccc(F)cc1)C1CCN(C(=O)c2ccco2)CC1 (centres undefined)	-1.5	5.6
15	O=C(CSc1nnc(NC2CCCCC2)s1)NCC(F)(F)F	0.6	-1.0
16	C=CCN1Cc2ccccc2N(CC(O)C(F)(F)F)CCC1=O (centres undefined)	1.2	1.8
17	CCOc1ccccc1/C=C(/NC(=O)C1CCCCC1)C(=O)O	-0.6	-0.1
18	NS(=O)(=O)c1ccc(NC(=O)COC(=O)c2ccc(I)cc2)cc1	-4.7	-9.5
19	CNC(=O)[C@H]1CN(C(=O)c2ccccc2)[C@]2(C)C(=O)N(C)c3ccccc3[C@H]12	15.8	24.8
20	COCCNS(=O)(=O)c1cccc2nsnc12	15.0	14.7
21	CN(C)c1ccc(CN(C)S(=O)(=O)Cc2ccccc2)cc1	-2.4	-4.9
22	COCCNC(=O)c1ccc(-n2nc(-c3cccc(C)c3)cc2N)cc1	-7.4	-9.7
23	Cc1cc(C)cc(N=C2NC(=O)/C(=C/c3ccc(-c4ccccc4C(=O)O)o3)S2)c1	-3.5	-7.7
24	Cc1nnc(COC(=O)C(C)N2CCC(Cc3ccccc3)CC2)o1 (centres undefined)	-7.9	-7.7
25	CC(=O)N(c1ccc(Cl)cc1)c1nc(C)cc(C)c1C#N	-2.9	-4.1
26	Cc1ccc2nc(COC(=O)c3ccc(C)s3)cc(=O)n2c1	-0.6	26.2
27	Oc1cccc(C=NN=C(c2ccccc2)c2ccccc2)c1	2.9	0.3
28	Cc1ccc(C(C[N+](=O)[O-])c2c(C)[nH]n(-c3ccccc3)c2=O)cc1 (centres undefined)	2.3	-0.2
29	CN(C)CCCN(C(=O)c1ccc([N+](=O)[O-])cc1)c1nc2c(F)cccc2s1	3.0	1.7
30	CCn1c(C)c(C(C)=O)c2cc(OCC(O)CN3CCc4ccccc4C3)ccc21 (centres undefined)	-1.7	-2.1
31	Oc1[nH]c2ccccc2c1N=NC(=S)NCC1CCCO1 (centres undefined)	18.3	12.1
32	Cc1ccc(S(=O)(=O)NCC(=O)N(C)CC(C)CN2CCCC2)c(C)c1 (centres undefined)	-5.1	-9.3
33	O=C(CSc1n[nH]c(=O)c2cc(-c3ccc(F)cc3)nn12)NCc1ccc(F)cc1	3.1	4.0
34	Cc1ccc(OCC(O)CN(Cc2ccccc2)c2ccccc2)cc1 (centres undefined)	2.2	11.1
35	Cc1ccc(-c2csc3c2c(=O)[nH]c2c(-c4ccccc4)c(O)cn23)o1	6.8	4.7
36	NC(=O)c1ccsc1NC(=O)CN1C(=O)NC2(CCCCC2)C1=O	4.2	5.9
37	Cc1c(C(=O)N(C)C2CCS(=O)(=O)C2)nnn1-c1ccc(Cl)cc1 (centres undefined)	5.2	10.2
38	CCOC(=NCCCOC)NC(=O)c1ccc(C)cc1	9.2	22.1
39	O=C(NCc1ccco1)c1nn(-c2ccc(Cl)cc2)c(=O)n(Cc2ccccc2F)c1=O	-7.2	-5.6
40	O=C1/C(=C\c2ccco2)SC(=S)N1c1cccc(F)c1	0.2	-0.2

Values in list order from the entries so far:
NPYLR7 ag for nos. 17 to 28: -0.6, -4.7, 15.8, 15.0, -2.4, -7.4, -3.5, -7.9, -2.9, -0.6, 2.9, 2.3

(listing goes on)
No.	Molecule	NPYLR7 ag	NPYLR7 ag max-min
41	CC(C)(C)n1ncc2c(=O)n(NC(=O)c3cccc4ccccc34)cnc21	3.9	1.6
42	CCCCCCCC=NNC(N)=S	2.1	0.3
43	COc1ccc(OC)c(CN2CCN(c3nc(C(F)(F)F)cs3)CC2)c1	1.6	0.9
44	COC(=O)c1sccc1NS(=O)(=O)c1ccc(C(C)(C)C)cc1	10.2	7.9
45	CCC1SC(c2ccc(F)cc2)N(CCCNC)C1=O (centres undefined)	-2.2	-8.6
46	COc1ccc(CC2CCN(C(=O)C3CCC3)CC2)cc1	-7.3	-10.5
47	CC(OC(=O)c1ccc(NC(N)=O)cc1)C(=O)C12CC3CC(CC(C3)C1)C2 (centres undefined)	2.8	1.5
48	CC(C)(O)CN(CC(=O)Nc1ccc(N2CCCCCC2)cc1)C1CCOCC1	1.1	-1.0
49	Cc1nn2c(NCCCn3ccnc3)cc(C(C)(C)C)nc2c1-c1ccc(Cl)cc1	-0.4	-1.7
50	O=[N+]([O-])c1cc(S(=O)(=O)C(F)(F)F)ccc1Oc1ccc2oc3c(c2c1)CCCC3	-3.5	-7.9
51	CCC1=NN(C(=O)c2ccccc2Cl)C(O)(c2ccccc2)C1 (centres undefined)	-9.6	-14.2
52	CC(C)Cn1c(CCC(N)=O)n[nH]c1=S	5.7	9.0
53	COC(=O)c1ccc(N2CCN(C)CC2)c(NC(=O)Cc2ccc(Cl)cc2)c1	-5.3	-8.4
54	COc1cccc(OC)c1C(=O)N1CCSC1c1ccc(C(C)C)cc1 (centres undefined)	11.9	17.6
55	CC(O)(COc1ccccc1)c1ccc2c(c1)CN(Cc1ccccn1)CCO2 (centres undefined)	6.4	5.2
56	COCc1ccc(CN2CCN(Cc3ccsc3)C(CCO)C2)o1 (centres undefined)	4.6	4.6
57	Cc1ccsc1CNc1ccc(C(=O)N(C)Cc2cc(C(C)C)on2)cc1	3.0	2.1
58	Cc1cc(C(=O)N2CC(c3ccncc3)C2)c2ccc(F)cc2n1	1.9	-1.6
59	CC1CCCC(CC(=O)Nc2ccc(-n3cncn3)nc2)C1 (centres undefined)	-0.7	-3.0
60	Clc1ccc(CSc2nnc(-c3ccc4c(c3)OCO4)o2)cc1Cl	-0.4	-3.6
61	C=C(Cl)CN(C)Cc1csc(C(C)OC)n1 (centres undefined)	4.2	0.8
62	OCCn1c(-c2cccc3[nH]ccc23)nc2ccccc21	-5.9	-8.4
63	CC1(C)CN(C(=O)OC(C)(C)C)c2ccccc2N1	-0.5	-1.2
64	Nc1ccc(S(=O)(=O)c2ccc(N)cc2)cc1	20.1&-12.6&-2.1&4.8	6.8&-16.4&-4.4&3.8
65	COc1ccc(NC(C)=O)cc1NC(=O)CNC(=O)c1ccc(C)s1	-0.7	6.0
66	Cc1ccc(C(=O)Nc2ccc(SCc3ccncc3)nn2)cc1	1.5	0.0
67	Brc1ccc(C=C2CCC(C3=CCCC3)=C2N2CCOCC2)s1	0.5	0.5
68	COCCNC(=O)c1c(N)n(-c2ccc(Cl)c(Cl)c2)c2nc3ccccc3nc12	-7.2	-10.5
69	COCCn1cc(C(=O)N2CCc3ccccc32)c2nn(-c3ccccc3)c(=O)c-2c1	3.7	3.0
70	CCCCCn1c(=NC(C)=O)c(C#N)cc2c(=O)n3ccccc3nc21	3.1	4.9

3 entries from above, set out differently.
Each structure is followed by: NPYLR7 ag | NPYLR7 ag max-min
(69) COCCn1cc(C(=O)N2CCc3ccccc32)c2nn(-c3ccccc3)c(=O)c-2c1
    3.7 | 3.0
(67) Brc1ccc(C=C2CCC(C3=CCCC3)=C2N2CCOCC2)s1
    0.5 | 0.5
(70) CCCCCn1c(=NC(C)=O)c(C#N)cc2c(=O)n3ccccc3nc21
    3.1 | 4.9

The list goes on.
No.	Molecule	NPYLR7 ag	NPYLR7 ag max-min
71	O=C(C=Cc1ccc(Br)o1)OCc1cc(=O)oc2cc3c(cc12)CCC3	5.3	12.5
72	Cc1ccc(NS(=O)(=O)c2cc(Cl)ccc2C#N)nc1	0.6	-0.4
73	O=C(NS(=O)(=O)c1cncc(Br)c1)c1ccc(OC(F)(F)F)cc1	-5.7	-7.0
74	CCCCNC(=O)C1(C)CCN1Cc1ccc2ccccc2c1 (centres undefined)	3.8	-0.2
75	CC(Cn1cccn1)Nc1nccc(CCC(F)(F)F)n1 (centres undefined)	4.6	3.4
76	COc1ccc(C(=O)C2CCCN(C(=O)c3ccc(C)c(C)c3)C2)cc1OC (centres undefined)	0.2	-1.5
77	O=C(Nc1ccncc1NC(=O)c1ccccc1)c1ccccc1	-1.6	-0.5
78	Cc1ccc(C(=O)O)n1C	1.9	7.7
79	CC(=O)Nc1c2c(nn1-c1cc(C)cc(C)c1)CSC2	13.1	20.0
80	Cc1nc(S(=O)(=O)Nc2cccc(C(C)C)c2)cn1C	2.8&-1.8	1.1&-3.0
81	COc1cccc(N2CC(C)Cn3c2nc2c3c(=O)n(CCN3CCOCC3)c(=O)n2C)c1 (centres undefined)	-3.9	-8.1
82	O=C1NC(Cc2ccccc2)C(=O)N1Cc1ccc([N+](=O)[O-])cc1 (centres undefined)	4.9	5.2
83	COc1cc(C)c(NC(=O)Cc2c(C)nn(C)c2C)cc1OC	-2.9	-3.5
84	O=C(CCCc1cn[nH]c1)N1CCOC(Cc2ccc(F)cc2)C1 (centres undefined)	1.2	-2.6
85	CC(C)c1cccc(N(C)C(=O)c2c[nH]c(=O)c(Br)c2)c1	-22.6	-23.8
86	OCC1(Cc2ccccc2)CCCN(Cc2cccn2-c2ccc(Cl)cn2)C1 (centres undefined)	-13.4	-16.9
87	C[C@@]1(O)CCN(c2cnccn2)C[C@@H]1Cc1ccccc1	-5.2	-4.4
88	C=CCN(Cc1ccccn1)C(=O)CCn1c(C)cc(C)nc1=O	2.9	1.1
89	CNc1nc(C)cc(N2CCCC(C(=O)c3ccc4c5c(cccc35)CC4)C2)n1 (centres undefined)	3.6	-1.0
90	COCC1CN(Cc2ccc3c(c2)OCO3)S(=O)(=O)c2cccnc2O1 (centres undefined)	-5.4	5.4
91	O=C(Nc1cc(-c2ccc(Cl)cc2)nn1-c1cc(Cl)ccc1Cl)c1ccc(F)c(F)c1	22.4	10.8
92	COCCCN(CC(=O)N1CCc2sccc2C1c1ccc(Cl)cc1)C(=O)Cc1ccc(OC)cc1 (centres undefined)	6.3	19.6
93	Cc1ccc(F)c(S(=O)(=O)NC(=O)C2(C)CCN2C(=O)c2ccc(C3CCCCC3)cc2)c1 (centres undefined)	3.9	0.6
94	CCOC(=O)N1CCN(C(=O)CSc2cc(-c3ccccc3)ncn2)CC1	0.0	-0.1
95	COc1ccc([C@H]2[C@@H](C(=O)N3CCc4ccccc4C3)c3ccccc3C(=O)N2Cc2ccccc2)cc1	-8.2	-16.3
96	N#CC1C(=N)C(C#N)(C#N)[C@@H](c2ccccc2)[C@@H]2CCCC=C12 (some centres undefined)	32.8	25.0
97	Cc1cccc(NC(=O)Cn2nc(C3CC3)c3cnn(-c4ccccc4)c3c2=O)c1	9.7	6.1
98	CCCN(CC1CCCO1)C(=O)CCc1nnc(Cc2cccc(C(F)(F)F)c2)o1 (centres undefined)	2.0	-1.1
99	CC(CCc1ccccc1)NC(=O)c1cc(=O)c(OCc2ccc(F)cc2)co1 (centres undefined)	-0.9	-0.9
100	CN=c1scc(-c2ccc(Br)cc2)n1N=Cc1ccccc1	3.4	1.6
101	COc1ccc(S(=O)(=O)N2CCOCC2)cc1N1CCN(C(=O)c2cc3ccccc3s2)CC1	2.0	-0.2
102	Nc1cc(-c2ccc(-c3ccn[nH]3)cc2)nc(N2CCOCC2)n1	11.1	10.7
103	C=CCn1c(=S)[nH]c2ccc(Cl)cc2c1=O	6.7	12.1
104	CCn1c(CN2CCC(C)CC2)nc2cc(S(=O)(=O)N3CCCCC3)ccc21	0.5	-2.3
105	O=C(NC(c1ccccc1)c1ccccc1)c1cc2n(n1)CCN(CC1CC1)C2=O	-2.0	5.1
106	CC(=O)NC1CCCN(C(=O)c2csc(-c3ccco3)n2)C1 (centres undefined)	-19.2	-22.4
107	CCCS(=O)(=O)NCC(C)Cc1cccs1 (centres undefined)	0.0	-2.2
108	c1ccc(C(NCCNC(c2ccccc2)c2ccccc2)c2ccccc2)cc1	2.2	-20.9
109	c1cc(CN2CC(c3ccncc3)C2)cc(-n2cccn2)c1	6.6	-2.2
110	CN(c1ccccc1)S(=O)(=O)c1cccc(NS(=O)(=O)c2ccc3c(c2)OCCO3)c1	-2.3	-11.7
